Source: PubChem BioAssay (ICCB-Longwood Screening Facility, Harvard Medical School)
BasE inh – BasE siderophore enzyme inhibitors, primary screen, biochemical, Acinetobacter baumannii ATCC 17978, fluorescence polarization | inhibition, % (concentration not given with the values) | 84,000 tested, 0.1% active | purified BasE, fluorescence polarization binding displacement;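 active = both replicates above 25% with normal brightness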;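 also: 0% = negative plate control signal and 100% = positive plate control signal; stock transfer was 100 nL into about 30 µL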
LANA-nucl inh – inhibitors of KSHV LANA-nucleosome binding, primary screen, biochemical, fluorescence polarization, FITC-LANA1-23, chicken nucleosomes; FITC-LANA1-23 / chicken nucleosome fluorescence polarization; active compounds read low; AID 720717, 2013; z-score (concentration not given with the values); 51,000 tested, 0.3% active;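 active = both repeat wells score below -2 in polarization z-score versus plate sample wells, excluding overly bright wells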;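 also: 100 nL library stock added to about 30 µL; numbers are from one replicate; some results filed as inactive read as strong as hits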
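test system = FITC-LANA peptide and chicken nucleosomes | amount = 240 nM purified chicken nucleosomes (480 nM peptide binding sites), final | reagent = 50 nM FITC-LANA1-23 probe | medium = TEN-BT buffer, pH 7.5 | doses = single compound addition by pin transfer, 100 nL per well | timing = 10–45 min, room temperature | detection = fluorescence polarization | repeats = duplicate plates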
* marks the source's active call; other numbers are inactive results; x = no result given; & = joins results of further samples. Some of the compounds tested (hit frequency here may not be typical).

Results follow in this order: BasE inh	LANA-nucl inh
[1] Oc1ccc(Br)cc1C=Nc1nonc1-c1ccccc1
→ 0.9	2.5
[2] COc1ccc(N(C(C)=O)C2SC(=O)N(c3ccccc3)C2=O)cc1 (configuration not stated)
→ -1.4	x
[3] CCN(C(=O)COc1ccc(C#N)cc1OC)C1CCCCC1
→ -0.9	x
[4] O=C(Cn1nnc(-c2cccs2)n1)NC1CC1
→ 0.0	-0.41
[5] FC(F)(F)c1cccc(-n2c(-c3ccncc3)n[nH]c2=S)c1
→ 2.0	x
[6] O=C(N(c1ccccn1)C1CCCCC1)C12CC3CC(CC(C3)C1)C2
→ 1.7	-0.37
[7] NS(=O)(=O)c1ccc(NC(=O)Cc2cccs2)cc1
→ 0.4	-0.11
[8] CCC(=O)Nc1nn(CC)c2nc3ccccc3cc12
→ 4.9	-0.033
[9] NC1=NC(=O)C(c2ccccc2Cl)S1 (configuration not stated)
→ 2.8	-0.14
[10] CCc1nn2c(=O)cc(COc3ccc(C=C(C#N)C#N)cc3OC)nc2s1
→ -2.1	0.19
[11] O=c1[nH]ccc2nc(NCc3ccccc3)ncc12
→ 0.4	-0.43
[12] Cc1ccc(S(=O)(=O)N/N=C/c2ccc3c(c2)n(C)c(=O)n3C)cc1
→ -3.4	1.2
[13] CCOC(=O)c1ccc(NC(=S)N2CCC(N(C)C(C)CC)CC2)cc1 (configuration not stated)
→ -5.9	1.5
[14] Cc1ncc(CO)c(CO)c1O
→ -1.6	0.22&0.27
[15] CCN(CC(=O)Nc1cccc(OC)c1)C(=O)Cn1nnc2ccccc21
→ 17	x
[16] Nc1ccccc1N1CCCC1
→ 1.0	-0.15
[17] Cn1nc(-c2nc3c4c5c(sc4[nH]c(=O)n3n2)CCC5)c2ccccc2c1=O
→ 0.3	x
[18] CCOC(=O)N1CCC(NC(=O)C2CCCN(Cc3nc(-c4ccc(CC)cc4)oc3C)C2)CC1 (configuration not stated)
→ -2.4	0.43
[19] Cc1ccc2c(c1)N(CC(=O)NCc1ccccc1Cl)C=NS2(=O)=O
→ -0.6	-0.047
[20] Cc1cc(C)cc(N(CC(=O)NCc2ccco2)S(C)(=O)=O)c1
→ 0.4	0.56
[21] CN(C)c1ccc(NC(=O)/C=C/C(=O)O)cc1
→ -0.3	x
[22] O=c1[nH]c2sc3c(c2c(=O)n1Cc1ccco1)CCCC3
→ 3.0	0.31
[23] O=C(Nc1ccc(Cl)c(Cl)c1)Nc1ncc2c(n1)CC(c1ccco1)CC2=O (configuration not stated)
→ 2.3	-0.75
[24] COc1cccc(C2N(c3ccccc3)CCN2c2ccccc2)c1OC
→ 2.7	-0.5
[25] COC(=O)c1cc2c(cc1NC(=O)c1c(C)nn(-c3ccccc3)c1-n1cccc1)OCO2
→ 0.0	-1.2
[26] O=C(NC(=S)Nc1ccc(-n2nncc2-c2ccco2)cc1)C12CC3CC(CC(C3)C1)C2
→ 0.1	-0.52
[27] O=C(Nc1ccc2c(c1)C(=O)OC2)c1cc2ccccc2s1
→ 2.4	x
[28] Cc1nnc2n1CCCCC2
→ 0.9	x
[29] COC1=CC(=O)c2ccccc2C1=O
→ 3.9	0.51
[30] CC/C(C)=C(\C#N)c1nc2ccccc2[nH]1
→ 1.6	x

Numbers 27 to 30, quoted:
Results follow in this order: BasE inh	LANA-nucl inh
[27] O=C(Nc1ccc2c(c1)C(=O)OC2)c1cc2ccccc2s1
→ 2.4	x
[28] Cc1nnc2n1CCCCC2
→ 0.9	x
[29] COC1=CC(=O)c2ccccc2C1=O
→ 3.9	0.51
[30] CC/C(C)=C(\C#N)c1nc2ccccc2[nH]1
→ 1.6	x

(further entries)
Results follow in this order: BasE inh	LANA-nucl inh
[31] CCOC(=O)C1CCN(C(=O)c2coc3ccccc3c2=O)CC1
→ 0.1	x
[32] Cc1ccc(-c2nc3sccn3c2Nc2ccccc2)cc1
→ 3.4	-2.2
[33] Cc1ccc(C(=O)NC(=S)Nc2ccc(NC(=O)c3ccco3)cc2)cc1C
→ 0.1	-0.24
[34] CCOc1nc(NCCO)nc(NCCC2=CCCCC2)n1
→ 2.5	-0.027
[35] O=C(Nc1ccc(OC(F)(F)F)cc1)c1ccccn1
→ -1.7	x
[36] CCCNC(=O)NCC1CCN(Cc2ccccc2)CC1
→ 2.3	-0.32
[37] CCCC(=O)C1CCN(C(=O)c2ccc(C(C)(C)C)cc2)CC1
→ -0.6	-0.26
[38] COc1ccc(Nc2cc(N3CCCC3)ncn2)cc1
→ 1.2	0.26
[39] CCn1c(C(=O)O)c(CNCc2ccc(C)o2)c2ccc(OC)cc21
→ -0.1	0.42
[40] Cc1ccc(N=c2scc(-c3ccco3)n2/N=C/c2ccncc2)c(C)c1
→ 0.8	x

Sorted by length of the SMILES (smallest number first): 6 of the compounds above
Results follow in this order: BasE inh	LANA-nucl inh
[38] COc1ccc(Nc2cc(N3CCCC3)ncn2)cc1
→ 1.2	0.26
[34] CCOc1nc(NCCO)nc(NCCC2=CCCCC2)n1
→ 2.5	-0.027
[32] Cc1ccc(-c2nc3sccn3c2Nc2ccccc2)cc1
→ 3.4	-2.2
[39] CCn1c(C(=O)O)c(CNCc2ccc(C)o2)c2ccc(OC)cc21
→ -0.1	0.42
[40] Cc1ccc(N=c2scc(-c3ccco3)n2/N=C/c2ccncc2)c(C)c1
→ 0.8	x
[33] Cc1ccc(C(=O)NC(=S)Nc2ccc(NC(=O)c3ccco3)cc2)cc1C
→ 0.1	-0.24

The results go on:
Results follow in this order: BasE inh	LANA-nucl inh
[41] NCc1nc(-c2ccccc2)no1
→ -1.3	-0.32
[42] O=C(NC1CC2CCCC(C1)N2CC(=O)N1CCCc2ccccc21)c1ccccc1 (configuration not stated)
→ -0.3	-0.76
[43] CC1(C)OC(c2ccccc2)CC1=O (configuration not stated)
→ 0.5	-0.025
[44] O=C(NCc1ccccc1CN1CCCC1)c1cc2cc(Cl)ccc2o1
→ -2.5	x
[45] N#Cc1ccsc1NC(=O)COC(=O)C1CC(=O)N(Cc2ccco2)C1 (configuration not stated)
→ 2.3	x
[46] Cc1cc(C)nc(SCC(=O)NN=C2CCCC2)n1
→ -1.0	-0.88
[47] Cc1ccccc1Nc1nc(N)nc(CSc2ncn[nH]2)n1
→ 0.7	x
[48] Cc1ccc2nc(Cn3nnc(-c4ccccc4)n3)cn2c1
→ 0.8	x
[49] CSc1ncccc1C(=O)NCc1nnc2ccccn12
→ 5.7	x
[50] O=C(OCCc1csc2ccccc12)c1ccc(Cl)cc1
→ -0.3	x
[51] CC(C)C1Oc2cc3oc(=O)ccc3cc2C1=O (configuration not stated)
→ 2.1	0.13
[52] Cn1nc(C(=O)NCC2CCCO2)c2c1-c1ccccc1SC2 (configuration not stated)
→ -0.9	-1.5
[53] O=c1ccc(-c2ccc(S(=O)(=O)NC3CC3)o2)n[nH]1
→ 0.5	x
[54] O=C(CN(C(=O)Cn1nnc(-c2cccs2)n1)C1CCCC1)NCc1ccccc1
→ 0.1	0.16
[55] Cc1ccc(S(=O)(=O)NC(C)C(=O)OCc2cc(=O)n3ccsc3n2)cc1 (configuration not stated)
→ 10	x
[56] Cc1cc(C(=O)CN2C(=O)c3cccc(N)c3C2=O)c(C)n1-c1cccc(S(=O)(=O)N2CCOCC2)c1
→ 1.8	x
[57] O=C(Cc1cn2ccsc2n1)Nc1ccccc1Oc1ccccc1
→ -0.2	x
[58] COC(=O)N/N=C/c1ccc(OC)c(OC)c1
→ 2.1	x
[59] COC(=O)CSc1nnc(SCC(=O)OC)s1
→ -0.1	1
[60] COc1cccc(CNC(=O)c2cnc(OC)cc2C(F)(F)F)c1
→ -1.8	x
[61] Cc1ccc(CN2C(=O)CCNc3ccc(C(F)(F)F)cc32)cc1
→ x	-1.6
[62] C=CCN1C(=O)/C(=N/N=C/c2ccc(OC)c(O)c2)c2ccccc21
→ -3.5	x
[63] CCC12CCCN3CCC4(C(=C(C(=O)OC)C1)Nc1ccccc14)C32 (configuration not stated)
→ -1.7	1.1
[64] CCN(CC)c1ccc(N=C2C(=O)Nc3ccccc32)cc1
→ -0.9	-0.49
[65] NC(=O)NC1NC(=O)NC1=O (configuration not stated)
→ -0.2&-2.0	0.21&2.6&-1
[66] CCOC(=O)c1cc2sccc2[nH]1
→ 0.1	-0.18
[67] COc1ccc(Oc2cc(C)c3ccccc3n2)cc1
→ x	0.63
[68] CCC(=O)NNc1nc2c(C)c(C)ccc2s1
→ 0.9	-0.21
[69] O=C1C(=C2NCCN2)CC/C1=C\c1ccco1
→ 1.4	x
[70] N#CCC(O)CNc1ncc(C(F)(F)F)cc1Cl (configuration not stated)
→ x	-1
[71] COc1ccc(-n2cc(C(=O)NCCC3=CCCCC3)nn2)cc1
→ 1.9	0.7
[72] CCSC(=O)NC12CC3CC(CC(C3)C1)C2
→ -3.9	2.5
[73] CC(C)N1CC(C(=O)N2CCN(Cc3ccccc3)CC2)CC1=O (configuration not stated)
→ 5.6	-0.37
[74] Cc1ccc(C(=O)N2CCCC2)cc1NC(=O)c1ccco1
→ -0.6	-0.096
[75] COC(=O)c1sc(=S)n(-c2cccc(Cl)c2)c1N
→ 1.1	0.3
[76] CC1CCCN(C(=O)COC(=O)/C=C/c2ccc(C(F)(F)F)cc2)C1 (configuration not stated)
→ -0.8	x
[77] CCOc1cc(/C=C/c2ccccc2OC)cc(=O)c2c(C)oc(C)c12
→ 16	x
[78] Cc1ccccc1NC1c2ccccc2C(=O)N1Cc1ccco1 (configuration not stated)
→ 0.8	0.11
[79] Cn1c(=Nc2cccc(O)c2)sc2ccccc21
→ -0.4	-0.77
[80] CS(=O)(=O)c1ccc(NC(=O)C2CCCC2)cc1
→ -4.0	x
[81] CCOC(=O)C1CCCN(c2c(N)n(CC)c(=O)[nH]c2=O)C1 (configuration not stated)
→ 2.9	x
[82] O=C1C2C3C=CC(C3)C2C(=O)N1NC(=O)C12CC3CC(CC(C3)C1)C2 (configuration not stated)
→ -3.0	x
[83] OC1(C(F)(F)F)CC(C23CC4CC(CC(C4)C2)C3)=NN1 (configuration not stated)
→ -0.4	x
[84] Cc1cc(C)cc(C(=O)Nc2ccccc2N2CCOCC2)c1
→ 0.0	-0.69
[85] Cc1nn(-c2ccccc2)c2sc(C(=O)OCSc3ncccn3)cc12
→ 2.2	x
[86] CC1CCCC/C1=N\NS(C)(=O)=O (configuration not stated)
→ 2.2	-1
[87] N#Cc1ccc(COC(=O)C2CCN(c3nc4ccccc4o3)CC2)cc1
→ 1.1	x
[88] CCN(CC)c1ccc(NC(=O)CCNS(=O)(=O)c2ccc3c(c2)CCC(=O)N3)c(C)c1
→ -0.6	0.043
[89] CC(C)c1ccccc1OCC(=O)c1ccc(O)cc1O
→ -0.3	-0.043
[90] c1cn(-c2ncnc3sc4c(c23)CCC4)cn1
→ -0.5	x

Later entries
Results follow in this order: BasE inh	LANA-nucl inh
[91] CCOC(=O)C/C(C)=N/n1c(C)cc(C)c(C#N)c1=O
→ -0.3	x
[92] COc1ccc(OC)c(C(=O)COC(=O)c2ccc3ccccc3n2)c1
→ -1.4	x
[93] O=C(CC12CC3CC(CC(C3)C1)C2)Nc1ccc(N2CCN(C(=O)c3ccco3)CC2)cc1
→ 0.8	-0.7
[94] COc1ccc(Br)cc1C=Nc1ccc2[nH]c(=O)[nH]c2c1
→ 2.6	x
[95] O=C(CS(=O)(=O)c1ccc2ccccc2c1)N1CCCCCC1
→ -1.4	0.11
[96] CCN(CC)S(=O)(=O)c1ccc2oc(C(=O)Nc3ccc(C)c(C)c3)c(C)c2c1
→ 0.3	0.25
[97] COC(Cn1c(SCc2ccc(Cl)cc2)nnc1-c1ccccc1)OC
→ 1.6	x
[98] c1cc(-c2cc(-c3nc4c5c(ncn4n3)CCC5)[nH]n2)ccn1
→ 0.1	-0.19
[99] CCOc1cc(C=C2C(=O)OC3(CCCC3)OC2=O)cc(I)c1O
→ 4.5	-0.35
[100] O=C(CCNS(=O)(=O)c1ccccc1)Nc1ccccc1
→ 1.0	1.2
[101] CC(C)Cc1ccc(C(C)C(=O)Nc2ccc(Cl)cc2)cc1 (configuration not stated)
→ 3.1	x
[102] C=C(NCc1ccco1)c1ccc(Cl)cc1
→ -0.5	x
[103] CN(C)c1c(/C=C(/C#N)S(C)(=O)=O)cc(/C=C(/C#N)S(C)(=O)=O)c(N(C)C)c1C#N
→ -1.7	x
[104] COc1ccc(CN(Cc2nc3ccccc3c(=O)[nH]2)C(=O)Nc2ccccc2)cc1
→ 6.6	0.18
[105] COc1ccc(OC)c(N(CC(=O)N2CCN(c3ccccc3F)CC2)S(C)(=O)=O)c1
→ 0.0	-0.017
[106] Cc1onc(-c2ccc(Cl)cc2)c1-c1ccnc(SCc2ccccc2)n1
→ -1.4	0.27
[107] O=C1NCCCC2c3cc(O)ccc3OC12N1CCCCC1 (configuration not stated)
→ 0.0	0.97
[108] C=CCNC(=O)CSc1nnc(Cc2cccc3ccccc23)n1N
→ -0.9	x
[109] Cn1nc(-c2ccc(Cl)cc2)[nH]c1=O
→ 0.1	0.82
[110] O=C(C1CCCCC1)N1CC(=O)N2CCc3ccccc3C2C1 (configuration not stated)
→ -0.3&-0.9	-0.8&1.7&-1.1&0.5
[111] O=C(CNC(=O)C1CCCCC1)Nc1nc(CC23CC4CC(CC(C4)C2)C3)cs1
→ 1.5	x
[112] CCc1ccccc1-n1ncc2c1ncn1nc(-c3ccncc3)nc21
→ -0.2	-1.5
[113] COc1ccccc1NC(=O)CN(Cc1ccco1)C(=O)c1cc(C2CC2)nn1-c1ccccc1
→ -1.2	x
[114] CC(=O)NCC(=O)OCc1ccc(C(C)(C)C)cc1
→ 0.8	x
